Bioassay records from PubChem.
B2AR ag: beta2AR agonists driving receptor internalization, primary screen, cell-based, FAP fluorogen, flow cytometry; Am2.2-beta2AR cells; reference of the scale not given here; Beta-2 adrenergic receptor (Homo sapiens), P07550; 340,000 tested, 0.43% active; response, % (no concentration beside the values);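 active means response above a set limit, near 3 SD of response in nonfluorescent compounds, cut at about 42% in these data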;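 further: stock transfer was 100 nL into about 11 µL; a reference agonist was the positive control; negative values mostly stem from fluorescent compounds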
Target sequence (P07550 whole entry, looked up): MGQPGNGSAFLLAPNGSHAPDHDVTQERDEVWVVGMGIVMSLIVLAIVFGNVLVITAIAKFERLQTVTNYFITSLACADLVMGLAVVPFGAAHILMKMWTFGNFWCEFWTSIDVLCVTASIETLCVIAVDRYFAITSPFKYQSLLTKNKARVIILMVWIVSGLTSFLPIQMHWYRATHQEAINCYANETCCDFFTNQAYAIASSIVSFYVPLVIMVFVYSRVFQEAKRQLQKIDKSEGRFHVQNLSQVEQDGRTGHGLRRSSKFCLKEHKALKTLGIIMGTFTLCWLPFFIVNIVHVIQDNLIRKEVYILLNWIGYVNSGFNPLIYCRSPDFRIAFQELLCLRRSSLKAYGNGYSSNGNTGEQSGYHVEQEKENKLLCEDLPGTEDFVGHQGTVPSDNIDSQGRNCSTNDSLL
Calb FLC: C. albicans growth inhibition with fluconazole, primary screen, CaCi-2 strain, Alamar Blue fluorescence; C. albicans CaCi-2 (fluconazole-resistant clinical isolate) + fluconazole, 48 h; growth inhibition, % (no concentration beside the values); 300,000 tested, 0.57% active; AID 1979, 2009;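 active means most replicates above 75%; inconclusive means exactly half above 75%; inactive means most below 75%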;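 further: all wells also contain fluconazole at 8 µg/ml as a sub-toxic cotreatment; 0% = median of DMSO wells and 100% = median of geldanamycin control wells; wells of about 8 µL received 7.5 nL stock; the first replicate is given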
T cruzi inh: inhibitors of intracellular T. cruzi growth, primary screen, luminescence, NIH3T3 host cells | T. cruzi beta-gal in NIH3T3, 90 h | inhibition, % (test concentration not listed) | 300,000 tested, 1.4% active;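 active means mean inhibition across valid replicates above about 55%, limit read from the data; inconclusive means mean below that limit but half or more replicates reach it; inactive means mean below it, under half of replicates reach it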;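 further: signal also drops with host cell toxicity which is not excluded here; 0% = plate median of DMSO wells and 100% = zero luminescence signal; higher percent means less beta-gal luminescence so fewer parasites; stock transfer was 50 nL into about 50 µL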
LANA-H2A inh: blockers of LANA interaction with H2A/H2B – biochemical, FP readout, HTS, primary screen; Protein LANA1 (Human herpesvirus 8 type P (isolate GK18)), Q9QR71; cell-free LANA-H2A/H2B peptide, fluorescence polarization; 320,000 tested, 0.6% active; inhibition, % (no concentration beside the values); AID 2629, 2010; in the data active means inhibition mostly above about 10%, no sharp cut-off; inactive means mostly below about 6.7%;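 further: stock transfer was 7.5 nL into about 10 µL; 0% = median of vehicle wells and 100% = median of positive control wells; one replicate is shown; the record names a cut of 25% in any replicate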
Beta cell apopt: inhibitors of cytokine-induced beta cell apoptosis, primary screen, luminescence; INS-1E cytokine-induced death, ATP luminescence, 48 h; percent of positive-control rescue, neutral wells zero; protection from apoptosis, % (concentration not given with the values); 300,000 tested, 0.8% active;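 active means all replicates at 75% or more, or half of them and the mean; inconclusive means half reach 75% but not the mean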;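 further: 0% = cytokine-treated negative control wells and 100% = positive control rescue; higher means more ATP so stronger rescue from cytokine killing; wells of about 40 µL received 100 nL stock; the first replicate is given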
ALR inh: inhibitors of human ALR sulfhydryl oxidase, primary screen, biochemical, H2O2 detection, HRP-luminol luminescence, single point | FAD-linked sulfhydryl oxidase ALR (Homo sapiens), P55789 | purified ALR, DTT oxidation | inhibition, % (concentration not given with the values) | 290,000 tested, 3.8% active;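 active means mean and each replicate at 75% or more; inconclusive means only one of the two met; inactive means neither met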;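 further: stock transfer was 7.5 nL into about 7.5 µL; 0% = neutral wells and 100% = wells with inactivated enzyme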
Target sequence (P55789 whole entry, looked up): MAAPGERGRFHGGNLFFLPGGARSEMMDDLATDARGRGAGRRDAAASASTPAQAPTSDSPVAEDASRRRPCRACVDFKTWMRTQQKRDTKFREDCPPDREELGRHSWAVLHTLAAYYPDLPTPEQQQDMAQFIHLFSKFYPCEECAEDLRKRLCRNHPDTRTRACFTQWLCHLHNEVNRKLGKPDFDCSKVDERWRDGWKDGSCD
Bfl-1 A1 inh: caspase 3/7 activation in MEF A1-2A-BIM cells, primary screen, A1 inhibitor project, cell-based, luminescence, HTS | Caspase-Glo 3/7 luminescence, 3 h; percent of clofoctol response, vehicle zero | caspase activation, % (no concentration beside the values) | 330,000 tested, 0.066% active | AID 2462, 2010;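 active means over half of replicate activation scores above 10%, or exactly half above 10 with the replicate mean above 10; inconclusive means replicate mean below 10 yet half the replicates above 10; inactive means over half of replicates below 10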;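 further: wells of about 30 µL received 50 nL stock; many hits fall short of the cut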
Ecoli rRNA inh: reduced GFP signal of wild-type E. coli, primary screen, bacterial rRNA inhibitor project, GFP/RFP fluorescence, OD600, single point | E. coli WT GFP vs humanized-ribosome RFP mutants, 24 h; hits give low values; DMSO median 0, no signal -100 | GFP signal change (wild-type ribosome), % (concentration not given with the values) | 350,000 tested, 1.6% active | AID 720706, 2013;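 active means significant combined selectivity score with lowered wild-type GFP, culture density cut under 30%, mutant RFP and density less affected; inactive means any of these conditions unmet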; further: one replicate is shown; some compounds called inactive have numbers as strong as hits
Ecoli rRNA inh OD600: recorded beside Ecoli rRNA inh, whose call it bears; OD600 change, %; measured here: OD600 growth;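 optical density of the mix in the first replicate; 0 = DMSO median and -100 = no signal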
Ecoli rRNA inh RFP: also measured in Ecoli rRNA inh; calls as there; RFP signal change, %; measured here: RFP humanized mutant strains;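 first replicate; 0 = DMSO median and -100 = no signal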
Starred values were filed as active, the others as inactive; ? = inconclusive; · = not tested or not shown. Some of the compounds tested; the hit share may differ from the screen's.

Compound	Ecoli rRNA inh RFP	Bfl-1 A1 inh	T cruzi inh	ALR inh	Beta cell apopt	Ecoli rRNA inh OD600	Calb FLC	B2AR ag	Ecoli rRNA inh	LANA-H2A inh
CCCCn1nc(C(=O)Oc2ccc3c(C)cc(=O)oc3c2)c2ccccc2c1=O	-1.7	0.4	5	·	-1	-8	44	9	2	·
C=CCN1CCc2cc(O)c(O)cc2C(c2ccccc2)C1 (stereo unspecified)	·	0.1	·	98*	-1	·	·	-5	·	4.9
c1ccc(CCC2CCCCN2Cc2nc(C3CC3)no2)cc1 (stereo unspecified)	0.4	0.0	8	-7	2	2	-14	0	0	1.8
CC(C)CC1Nc2ncnc(N3CCN(c4ccccn4)CC3)c2N(Cc2ccc(Cl)cc2)C1=O (stereo unspecified)	-6.1	-1.3	·	2	-11	-2	·	-1	1	2.1
O=C(O)CC1=C(c2ccc(F)cc2)CCC1=O	2.5	0.3	-10	0	0	12	2	5	12	-1.4
Cc1ccccc1NC(=O)CSc1ccncc1	1.1	-0.1	-3	-2	-3	1	-7	-3	0	-3.2
CCOC(=O)Nc1ccc2c(c1)Sc1ccccc1N2C(=O)CCN1CCOCC1	·	-0.1	42	9	-1	·	2	-12	·	0.7
Cc1ccc(S(=O)(=O)N2CCCCC2)cc1NC(=O)CSc1ncccn1	2.6	-0.3	·	-2	-4	3	·	-2	6	-422
Cc1cccc(NC(=O)c2ccc(Cl)c(S(=O)(=O)N3CCc4ccccc43)c2)n1	6.4	1.4	·	·	-5	-7	·	9	-10	-4.1
Cc1ccc(N2C(=O)CC(Nc3cccc4ccccc34)C2=O)cc1 (stereo unspecified)	-1.3	-0.7	1	-19	-4	2	8	14	3	2.8
O=[N+]([O-])c1ccccc1/C=C/c1ccc2ccccc2n1	-9.1	-6.5	-11	7	-3	-36	16	-4	-38	-1.7
Cc1cc(C)c(C(=O)Cn2nc(C(=O)O)c3ccccc3c2=O)cc1C	10.0	0.0	-18	-3	0	0	-2	1	7	3.4
COc1ccc(OCC(=O)Nc2ccc(S(=O)(=O)N3CCCCCC3)cc2)cc1	·	0.4	-9	-1	1	·	-7	10	·	0.3
Cc1nnc(SCCn2c(N3CCC(C)CC3)nc3c2c(=O)[nH]c(=O)n3C)s1	·	2.1	-6	-4	-4	·	-2	-27	·	3.9
CCCOc1ccc(C2NC(=S)NC(c3ccccc3)=C2C(=O)Nc2ccc(C)cc2)cc1OC (stereo unspecified)	·	-1.5	5	1	2	·	-1	-5	·	0.2
CCN(CC)C(=O)c1ccc(CS(=O)(=O)c2ccc(Br)cc2)cc1	-1.6	-0.2	1	-6	-4	2	4	2	-3	-2.5
COC(=O)c1sc(NC(=S)NC(=O)c2cc(OC)c(OC)c(OC)c2)nc1C	2.9	1.5	-11	-5	-1	3	14	7	12	2.0
Cc1cc(O)c(N=Cc2cc3c(cc2[N+](=O)[O-])OCO3)cc1C	·	0.9	2	-6	2	·	0	11	·	-1.6
Cc1ccc(S(=O)(=O)CCNC(=O)Cc2ccccc2)cc1	1.1	-2.5	1	1	6	10	2	1	14	-1.5
O=S(=O)(c1ccc2c(c1)OCCO2)C1CCC(S(=O)(=O)c2c(F)cccc2F)CC1 (stereo unspecified)	-0.6	-1.7	·	1	-2	10	·	·	13	4.5
COc1ccc(CNC(=O)CC2C(=O)NCCN2CC(C)(C)C)c(OC)c1 (stereo unspecified)	·	0.6	-10	-4	-13	·	4	2	·	1.4
CC(=O)Nc1ccc(S(=O)(=O)N2CCC(C(=O)c3ccc(F)cc3)CC2)cc1	2.0	0.4	0	-2	9	5	-3	-12	-7	-2.7
Cc1c(C(=O)OCC(=O)N(C)Cc2ccccc2)oc2ccccc12	-19	-1.1	·	-23	-9	-41	·	2	-32	0.4
COc1ccccc1/C=C\C(=O)NCC(=O)N/N=C/c1ccc(O)cc1O	-9.2*	-0.1	-1	·	2	-8.5*	4	5	-29*	1.5
CC(=O)c1ccc(N2CCN(C(=O)c3cn(Cc4ccccc4)nc3-c3cccnc3)CC2)c(F)c1	0.7	-0.5	·	-2	-2	-18	·	-8	-9	1.9
Cc1cc(C(=O)NC2CCCCC2)c(C)n1-c1ccc(F)cc1	·	-1.8	-5	25	-3	·	-41	1	·	-5.0
Nc1n[nH]c2cccc(Cl)c12	-2.4	2.4	10	55	-2	2	0	3	2	-2.9
c1ccc2c(c1)sc1nnnn12	·	-0.2	-8	-18	·	·	-8	-3	·	1.4
COC(=O)NNC(=S)Nc1ccc(Br)cc1	3.8	0.1	-9	2	3	19	-9	-2	21	2.9
COc1ccccc1CC(=O)Nc1ccc(-c2noc(COc3ccc(Cl)c(C)c3)n2)cc1	·	0.3	33	-20	2	·	0	-9	·	4.7
CC1=CC(C)(C)n2c(O)c(C3=NC(=S)NC3=O)c3cc(OC(=O)c4cccc5ccccc45)cc1c32	·	-0.1	41	-2	-4	·	19	19	·	-4.6
Cc1cccc(S(=O)(=O)NCCC(=O)OC(C)C(=O)NC(=O)NC2CCCCC2)c1 (stereo unspecified)	·	0.6	-1	11	-2	·	-5	1	·	-0.7
Cc1ccccc1NC(=S)N(CCc1c(C)[nH]c2ccc(F)cc12)Cc1cccnc1	-4.5	0.1	51	2	-3	-38	-2	-9	-35	-5.0
COCc1cc(=O)[nH]c(N2CCN(c3ccccc3OC)CC2)n1	0.3	1.1	-18	21	·	12	-8	8	23	-10
O=C(CCS(=O)(=O)c1ccccc1)NC1CCCC1	5.0	0.2	-1	-3	-5	-2	-3	2	2	1.5
COc1ccc(C)cc1NS(=O)(=O)c1cn(C)nc1C	2.1	0.3	-11	-2	-5	4	-16	-4	11	1.0
CCCOc1ccc(-c2c(C(=O)N/N=C/c3ccc(C)cc3)nnn2-c2nonc2N)cc1	2.0	0.5	9	45	5	-6	1	-1	13	-0.4
CCOc1ccc(C(=O)Nc2ccc(S(=O)(=O)Nc3cc(C)on3)cc2)cc1	0.0	-0.3	-12	·	2	5	-22	0	7	-4.2
CC1CCCN(C(=O)Cc2cccc3ccccc23)C1 (stereo unspecified)	-0.1*	1.0	3	-3	-10	-20*	-7	0	-29*	-0.2
CCn1c(O)c(N=NC(=O)C2C(=O)NCC2c2ccccc2)c2ccccc21 (stereo unspecified)	·	-0.5	14	3	-3	·	-13	-8	·	-2.5
CCOC(=O)c1ccc(NC(=S)N(CCCN2CCCC(C)C2)Cc2ccco2)cc1 (stereo unspecified)	·	2.3	0	-16	-14	·	-5	-4	·	-9.4
Clc1cccc(N2CCN(c3nnnn3-c3ccccc3)CC2)c1	-2.7	1.9	1	-3	3	-18	16	3	-14	1.3
CSc1ccccc1NC(=O)c1ccco1	·	0.4	-14	-2	5	·	-3	-3	·	0.4
CCOc1cc2[nH]c(=O)n(CCCN3CCN(c4ccc(OC)cc4)CC3)c(=O)c2cc1OCC	1.9	0.0	-8	15	-8	4	-9	5	-7	-0.2
O=C(O)C[C@H]1c2cc(C(F)(F)F)ccc2S(=O)(=O)N1C1CCCC1	0.7	1.7	-14	-4	-6	-12	8	4	1	-0.2
COc1ccc(CNC(=O)c2[nH]c(C)c(C(C)=O)c2C)cc1	1.7	-0.3	7	·	0	3	-3	9	3	-5.1
CCN(CC)CCn1c2c(c(SCC(=O)Nc3cc(C)ccc3C)nc1=O)CCC2	0.5	0.1	9	-10	·	10	-8	-3	7	2.9
O=C(COC(=O)Cc1ccc(S(=O)(=O)N2CCOCC2)s1)Nc1ccc(F)cc1F	·	-0.4	·	-13	-3	·	·	6	·	-1.6
CCOC(=O)CCC(NC(=O)CCCC(=O)NC(CCC(=O)OCC)C(=O)OCC)C(=O)OCC (stereo unspecified)	·	0.5	-5	-4	1	·	2	2	·	-4.3
CN(C)C1=NC[C@H](Cc2ccccc2)N1CCc1cccc(F)c1	-5.2	0.1	·	-5	4	10	·	-4	4	-1.6
CC1=NN(C(N)=S)C(=O)C1N=Nc1ccccc1C (stereo unspecified)	·	-6.6	38	0	32	·	51	-9	·	0.5
C=CCOc1ccc(CNc2ccc(NC(=O)CC(C)C)cc2)cc1OC	-1.8	-0.1	-15	8	0	-21	-22	9	-26	-1.1
NC(N)=NS(=O)(=O)c1ccc(NC(=S)NC(=O)/C=C/c2cccs2)cc1	2.1	0.6	0	-4	-1	0	9	0	-5	-6.5
Cc1ccc(C)c(-c2nnc(NC(=O)c3ccc([N+](=O)[O-])o3)o2)c1	-0.6	0.9	47	-5	36	6	9	4	12	-1.4
O=C(c1ccc(F)cc1)N1CCCCC(Sc2nnnn2-c2ccccc2)C1=O (stereo unspecified)	·	0.8	2	-23	·	·	2	-1	·	0.6
O=C(COC(=O)/C=C/c1ccc([N+](=O)[O-])cc1)NCc1ccccc1	-1.1	0.9	-10	·	4	2	1	9	7	-3.7
CCOC(=O)c1ccc(NC(=O)c2nc(S(=O)(=O)Cc3ccccc3)ncc2Cl)cc1	0.4	1.4	-9	-3	78*	22	-2	15	17	-2.7
COc1ccc(NC(=S)NC2CCCCCC2)c(OC)c1	-2.4	1.1	-4	3	-2	-2	21	3	-2	-2.8
COc1ccc(CCN=C(C)c2cc(C)c(C)cc2O)cc1OC	-1.5	1.1	-6	-9	2	3	-11	-3	7	0.7
CCSc1nnc(-c2ccc(S(=O)(=O)N3CCCC3)cc2)n1C	·	0.2	-12	-1	-3	·	-6	-1	·	4.6

(continued)
Compound	Ecoli rRNA inh RFP	Bfl-1 A1 inh	T cruzi inh	ALR inh	Beta cell apopt	Ecoli rRNA inh OD600	Calb FLC	B2AR ag	Ecoli rRNA inh	LANA-H2A inh
C[C@H]1COC(=O)[C@H](CC(=O)OC(C)(C)C)C/C=C\C[C@@H](CC(=O)N[C@H](CO)Cc2ccccc2)C(=O)N1	2.3	-0.1	·	1	0	7	·	-6	4	-2.8
C=CCOc1ccccc1CNc1ccccc1C	-2.5	0.2	-7	72	4	5	4	-2	5	0.6
COc1cc(/C=C2/C(=N)N3C(=NC2=O)SN=C3S(C)(=O)=O)ccc1OC(=O)c1ccco1	3.3	-7.9	0	70	-6	2	32	12	5	-8.7
CN(Cc1ccco1)S(=O)(=O)c1nnc(NC(=O)c2cccc(Cl)c2)s1	1.0	-3.4	-7	96*	17	5	-2	1	-2	1.5
O=C(NCCOc1ccccc1F)c1ccccc1SCc1ccc(F)cc1	·	0.4	20	·	-3	·	-6	1	·	·
Cc1ccc2nc(-c3ccc(Br)o3)oc(=O)c2c1	·	-8.7	-17	89*	-3	·	?	0	·	6.6
